Source: PubChem
RanGTP-Imp inh: disruptors of Ran-importin-beta complex formation – biochemical, FRET, CFP-Ran, YFP-importin-beta, homogeneous, primary screen | cell-free CFP-Ran/YFP-importin-beta FRET ratio | actives 1.1% (n = 300,000) | inhibition, % (test concentration not listed);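 active = most replicates above 15%; inconclusive = exactly half above 15%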;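 also: 0% = DMSO wells and 100% = Ran loaded with GDP instead of GTP; wells of about 40 µL received 100 nL stock; the first replicate is given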
Calb FLC: affects C. albicans growth with fluconazole; C. albicans CaCi-2 (fluconazole-resistant clinical isolate) + fluconazole, Alamar Blue growth, 48 h; growth inhibition, % (concentration not given with the values); actives 0.57% (n = 300,000); AID 1979;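 active = most replicates above 75%; inconclusive = exactly half above 75%; inactive = most below 75%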;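 also: all wells also contain fluconazole at 8 µg/ml as a sub-toxic cotreatment; 0% = median of DMSO wells and 100% = median of geldanamycin control wells; wells of about 8 µL received 7.5 nL stock; the first replicate is given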
AF4-AF9 inh: inhibitors of human MLL-AF4/AF9 interaction | AlphaScreen, biotin-AF4 peptide binding to FLAG-AF9 | actives 0.47% (n = 350,000) | AID 651704 | inhibition, % at 10 µM;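 active = every replicate reaching a set inhibition limit, whatever the replicate mean, cut at about 25% in these data; inconclusive = mean inhibition reaches that limit but some replicates miss it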;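 also: 0% = plate neutral control median and 100% = total signal loss; the record names both 10 and 1 µM as test concentration; the first replicate is given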
Target sequence (P42568 whole entry, looked up): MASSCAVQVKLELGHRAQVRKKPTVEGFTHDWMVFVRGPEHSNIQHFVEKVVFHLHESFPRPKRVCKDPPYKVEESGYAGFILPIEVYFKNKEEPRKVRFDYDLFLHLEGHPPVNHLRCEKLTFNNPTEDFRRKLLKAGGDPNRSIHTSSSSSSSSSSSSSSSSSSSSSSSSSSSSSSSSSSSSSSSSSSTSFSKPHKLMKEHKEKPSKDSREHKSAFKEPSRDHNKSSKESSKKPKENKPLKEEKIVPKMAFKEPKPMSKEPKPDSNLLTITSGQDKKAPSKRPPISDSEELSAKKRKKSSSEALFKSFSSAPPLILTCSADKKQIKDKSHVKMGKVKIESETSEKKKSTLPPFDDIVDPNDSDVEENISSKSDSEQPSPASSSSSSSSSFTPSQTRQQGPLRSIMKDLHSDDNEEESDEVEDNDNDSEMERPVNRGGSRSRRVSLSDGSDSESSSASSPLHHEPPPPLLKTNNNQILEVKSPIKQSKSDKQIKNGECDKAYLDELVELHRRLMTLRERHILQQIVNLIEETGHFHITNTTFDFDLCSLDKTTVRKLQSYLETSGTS
Bfl-1 A1 inh: inhibitors of the anti-apoptotic protein A1, read as caspase activation. actives 0.066% (n = 330,000). AID 2462. MEF A1-2A-BIM cells, Caspase-Glo 3/7 luminescence, 3 h; percent of clofoctol response, vehicle zero. caspase activation, % (concentration not given with the values);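 active = over half of replicate activation scores above 10%, or exactly half above 10 with the replicate mean above 10; inconclusive = replicate mean below 10 yet half the replicates above 10; inactive = over half of replicates below 10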;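 also: wells of about 30 µL received 50 nL stock; many hits fall short of the cut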
T cruzi inh: blocks replication of Trypanosoma cruzi; T. cruzi beta-gal in NIH3T3, luminescence, 90 h; inhibition, % (concentration not given with the values); actives 1.4% (n = 300,000);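 active = mean inhibition across valid replicates above about 55%, limit read from the data; inconclusive = mean below that limit but half or more replicates reach it; inactive = mean below it, under half of replicates reach it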;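 also: signal also drops with host cell toxicity which is not excluded here; 0% = plate median of DMSO wells and 100% = zero luminescence signal; higher percent means less beta-gal luminescence so fewer parasites; stock transfer was 50 nL into about 50 µL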
Beta apoptosis: beta cell apoptosis inhibition; INS-1E cytokine-induced death, ATP luminescence, 48 h; percent of positive-control rescue, neutral wells zero; protection from apoptosis, % (test concentration not listed); actives 0.8% (n = 300,000); AID 435005;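 active = all replicates at 75% or more, or half of them and the mean; inconclusive = half reach 75% but not the mean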;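 also: 0% = cytokine-treated negative control wells and 100% = positive control rescue; higher means more ATP so stronger rescue from cytokine killing; wells of about 40 µL received 100 nL stock; the first replicate is given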
LANA-H2A inh: blocks KSHV LANA binding to histone H2A/H2B; cell-free LANA-H2A/H2B peptide, fluorescence polarization; Q9QR71; actives 0.6% (n = 320,000); inhibition, % (no concentration beside the values); in the data active = inhibition mostly above about 10%, no sharp cut-off; inactive = mostly below about 6.7%;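 also: stock transfer was 7.5 nL into about 10 µL; 0% = median of vehicle wells and 100% = median of positive control wells; one replicate is shown; the record names a cut of 25% in any replicate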
Vif TR-FRET: HIV-1 Vif–A3G interaction blockers – biochemical, TR-FRET, GST-Vif 1-94, biotin-A3G peptide, dose response retest, primary screen (AID 1117319); TR-FRET GST-Vif / biotin-A3G peptide binding; higher % means a stronger effect; test concentration not given here; strong numbers were not always called active; inhibition, %, or IC50 in µM where a hit was titrated; actives 0.57% (n = 260,000);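 active = above the screen mean plus three standard deviations and confirmed in dose response; inconclusive = results disagree or hit not tested in dose response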;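 also: Vif residues 1-94 fused to GST binding biotinylated APOBEC3G peptide 110-148; 0% = full assay without inhibitor and 100% = GST in place of GST-Vif; retest series ran down from 100 µM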
Numbers without * were called inactive; u = inconclusive; x = not tested or not shown.

SMILES	RanGTP-Imp inh	Calb FLC	AF4-AF9 inh	Bfl-1 A1 inh	T cruzi inh	Beta apoptosis	LANA-H2A inh	Vif TR-FRET
Cc1ccc(Cn2c(C(C)Nc3nc(-c4ccc(F)cc4)cs3)nc3cc(C(F)(F)F)ccc32)cc1 (stereo not given)	-0.2	-1.9	1.9	0.8	-12.5	-1.2	-1.1	x
CCN(CC)c1nc(-c2ccccn2)nc(-c2ccccc2)c1C#N	-2.2	102.9*	-2.6	-0.9	57.9*	x	0.8	-5.3%
O=C(NN=C1C2CC3CC(C2)CC1C3)c1cccc(S(=O)(=O)N2CCOCC2)c1	2.4	-1.2	x	0.0	-1.8	-5.1	0.1	-2.0%
CCSc1nc(-c2ccccc2)c2cc(Cl)ccc2n1	1.9	-9.2	-2.9	0.1	28.7	x	-0.8	-8.5%
COc1cccc(CNC(=O)C(=O)NCC2OCCCN2S(=O)(=O)c2cc(C)ccc2C)c1 (stereo not given)	-1.0	-19.0	-0.6	1.8	-5.0	0.8	2.7	3.6%
COc1ccccc1N1CCN(C(=O)Cn2cnc3c2c(=O)n(C)c(=O)n3C)CC1	-1.3	-3.7	x	-0.4	-12.5	5.2	3.5	x
CCCc1cc(C(=O)NC2CCCC2)no1	0.3	-3.0	7.8	-0.7	-17.8	-2.4	5.4	-1.9%
COC(=O)c1cc(C)cc(=O)o1	1.3	5.6	x	0.7	-8.4	-1.7	1.1	u
COc1cccc(-c2cc(C(F)(F)F)nc(-n3cc(C)cn3)n2)c1	-0.3	-4.3	-4.7	-0.3	18.7	-0.8	-3.7	x
Cn1nnnc1Sc1ccc(C(=O)O)cc1[N+](=O)[O-]	0.7	-2.4	-39.3	-0.8	-13.1	3.6	3.8	28.0%
CCOC(=O)CCc1c(C)nc2c(c(C)nn2C(C)(C)C)c1C	-1.7	-6.0	-3.4	1.4	2.3	5.6	-2.0	-0.7%
O=C(OCn1nnc2ccccc2c1=O)c1cccnc1	2.5	-11.9	x	-0.7	-8.1	-5.5	-1.1	-1.1%
COC(=O)CNC(=O)COC(=O)c1ccc(OC)c([N+](=O)[O-])c1	3.3	17.5	2.2	0.3	-20.6	1.9	-0.6	-11.6%
Cc1ccc2nc(NC(=O)C(NS(=O)(=O)c3cccc4nsnc34)C(C)C)sc2c1 (stereo not given)	u	34.3	5.7	-0.8	17.9	-0.6	4.7	-3.2%
COc1ccc(C(=O)Nc2nnc(S(=O)(=O)N(C)Cc3ccccc3)s2)cc1	u	4.2	-2.5	-0.2	-8.9	6.7	-0.6	x
O=C(c1ccc(Cl)c([N+](=O)[O-])c1)N1CCN(c2ccccc2)CC1	-3.9	8.0	1.8	0.3	0.9	7.2	-1.2	2.3%
Cc1ccccc1NC(=S)NC1CCCC1	-4.0	2.6	3.2	0.1	-16.4	-1.3	1.7	x
COc1cc(C)c(Br)cc1S(=O)(=O)NCCCN1CCOCC1	-3.8	4.6	-1.3	-0.5	5.2	0.9	-4.6	-2.8%
CCc1noc(C)c1C(=O)Oc1ccc(N(C)S(=O)(=O)c2ccccc2)cc1	6.1	3.1	10.7	-0.3	11.8	5.5	-0.9	-1.5%
CCCCOc1ccc(C(=O)NCC(=O)NCC(c2ccc(OC)cc2)N2CCCC2)cc1 (stereo not given)	-0.6	-3.5	17.1	0.1	-5.3	-2.7	-1.2	0.0%

Compound profiles, from the list above. Screens in order: RanGTP-Imp inh, Calb FLC, AF4-AF9 inh, Bfl-1 A1 inh, T cruzi inh, Beta apoptosis, LANA-H2A inh, Vif TR-FRET
Entry for `O=C(OCn1nnc2ccccc2c1=O)c1cccnc1` = 2.5, -11.9, x, -0.7, -8.1, -5.5, -1.1, -1.1%
Entry for `CCSc1nc(-c2ccccc2)c2cc(Cl)ccc2n1` = 1.9, -9.2, -2.9, 0.1, 28.7, x, -0.8, -8.5%
Entry for `CCOC(=O)CCc1c(C)nc2c(c(C)nn2C(C)(C)C)c1C` = -1.7, -6.0, -3.4, 1.4, 2.3, 5.6, -2.0, -0.7%
Entry for `COc1cc(C)c(Br)cc1S(=O)(=O)NCCCN1CCOCC1` = -3.8, 4.6, -1.3, -0.5, 5.2, 0.9, -4.6, -2.8%
Entry for `O=C(NN=C1C2CC3CC(C2)CC1C3)c1cccc(S(=O)(=O)N2CCOCC2)c1` = 2.4, -1.2, x, 0.0, -1.8, -5.1, 0.1, -2.0%

Next section
SMILES	RanGTP-Imp inh	Calb FLC	AF4-AF9 inh	Bfl-1 A1 inh	T cruzi inh	Beta apoptosis	LANA-H2A inh	Vif TR-FRET
COc1ccc(S(=O)(=O)NCc2cccnc2)cc1C(=O)NC1CCCCC1	x	x	-0.4	-0.5	3.1	-9.8	0.9	x
O=C(CSc1ccccn1)Nc1ccc(F)c([N+](=O)[O-])c1	-1.0	-23.9	1.8	1.3	-7.2	-1.5	1.7	5.7%
COC(=O)c1cccn(CC(=O)c2ccc(Cl)cc2)c1=O	4.6	-2.5	-0.8	-0.2	-19.5	1.0	-3.3	-0.6%
CC(=O)Nc1cccc(NC(=O)CSc2nnc3ccc(-c4ccncc4)nn23)c1	1.7	-8.8	-1.8	1.9	-2.0	-1.7	4.8	3.0%
CCN(CC)C(=O)NC1CC(=O)N(c2ccc(OC)cc2)C1 (stereo not given)	2.9	11.3	-7.1	-0.4	-15.5	0.8	-2.7	x
Cn1cc2c(=O)n(/N=C/c3ccccc3)cnc2n1	4.1	19.2	-1.4	0.7	-1.1	-5.3	2.3	x
NC(=O)c1ccccc1NC(=O)CCN1C(=O)c2ccccc2C1=O	1.2	40.6	0.3	-0.1	-12.3	3.7	2.0	u
Cc1ccc(NC(=O)CN2CCc3cc4c(cc3C2C)OCCCO4)cc1C (stereo not given)	u	3.6	0.0	0.9	15.6	0.1	-2.4	x
CCOC(=O)C(C)c1nn(C)c(=O)c2ccccc12 (stereo not given)	0.2	-5.3	x	0.3	8.4	2.0	-4.4	-2.3%
NNc1nc(-c2ccccc2Cl)nc2sc3c(c12)CCCC3	5.3	-0.8	x	-0.4	50.8	28.8	-0.2	x
Cc1cccc(C(=O)N2CCc3cc(-c4nc(NC(=O)CN5CCCC5)sc4C)ccc32)c1	0.0	-3.3	10.3	0.0	10.2	18.9	2.6	x
O=C(NCc1ccco1)C1CCCN(S(=O)(=O)c2ccc(Cl)cc2)C1 (stereo not given)	1.3	9.1	x	0.9	6.1	-12.6	-3.8	23.8%
O=[N+]([O-])c1cccc(-c2nnc(SCc3cccnc3)o2)c1	0.9	u	-1.1	u	22.3	1.0	5.9	12.7%
CN(Cc1ccccc1)C(=O)C1CCN(Cc2ccc(F)cc2)CC1	u	-5.2	x	2.1	-2.3	-4.9	3.9	16.1%
O=C(CCN1C(=O)c2ccccc2C1=O)NCc1ccc(Cl)cc1	-2.4	2.0	0.3	-0.5	-13.2	x	0.5	x
COC(=O)c1sc(-c2cccs2)cc1NC(=O)/C=C/C(=O)O	3.5	8.3	0.7	-0.1	-17.0	6.2	8.4	-0.5%
Cc1cccc(N2CCN(C(=O)C(C)n3nc(C)n4c(cc5occc54)c3=O)CC2)c1C (stereo not given)	1.4	10.6	x	0.1	6.9	-0.1	-7.3	-3.8%
O=C(CSc1n[nH]c(-c2cccs2)n1)N1CCCCC1	-0.4	-0.5	-3.5	-1.8	-12.0	-0.6	2.6	-2.1%
NS(=O)(=O)c1ccc(NC(=O)COc2cccc3ccccc23)cc1	0.6	0.9	-2.2	-0.2	-11.6	-3.6	0.1	x
COc1cc2c(cc1OC)C(C)N(C(=O)Nc1cc(C)cc(C)c1)CC2 (stereo not given)	-2.8	-3.7	-1.9	1.5	-0.5	x	0.4	-5.8%

Shown with each value named: entries from further up
Molecule: O=C(NCc1ccco1)C1CCCN(S(=O)(=O)c2ccc(Cl)cc2)C1 (stereo not given)
  RanGTP-Imp inh: 1.3
  Calb FLC: 9.1
  AF4-AF9 inh: x
  Bfl-1 A1 inh: 0.9
  T cruzi inh: 6.1
  Beta apoptosis: -12.6
  LANA-H2A inh: -3.8
  Vif TR-FRET: 23.8%

Molecule: O=[N+]([O-])c1cccc(-c2nnc(SCc3cccnc3)o2)c1
  RanGTP-Imp inh: 0.9
  Calb FLC: u
  AF4-AF9 inh: -1.1
  Bfl-1 A1 inh: u
  T cruzi inh: 22.3
  Beta apoptosis: 1.0
  LANA-H2A inh: 5.9
  Vif TR-FRET: 12.7%

Exported as a markdown table: 2 of the compounds above
| Structure | RanGTP-Imp inh | Calb FLC | AF4-AF9 inh | Bfl-1 A1 inh | T cruzi inh | Beta apoptosis | LANA-H2A inh | Vif TR-FRET |
| --- | --- | --- | --- | --- | --- | --- | --- | --- |
| NNc1nc(-c2ccccc2Cl)nc2sc3c(c12)CCCC3 | 5.3 | -0.8 | x | -0.4 | 50.8 | 28.8 | -0.2 | x |
| Cc1cccc(C(=O)N2CCc3cc(-c4nc(NC(=O)CN5CCCC5)sc4C)ccc32)c1 | 0.0 | -3.3 | 10.3 | 0.0 | 10.2 | 18.9 | 2.6 | x |

(more compounds)
SMILES	RanGTP-Imp inh	Calb FLC	AF4-AF9 inh	Bfl-1 A1 inh	T cruzi inh	Beta apoptosis	LANA-H2A inh	Vif TR-FRET
COC(=O)c1ccc(S(=O)(=O)N(CCO)Cc2ccccc2)n1C	u	-4.5	-2.6	1.5	-17.0	-2.0	-1.1	-3.7%
CCCCc1nc2c(=O)[nH]c3ccccc3c2o1	1.9	6.7	x	-1.0	-4.0	-3.3	-0.7	-7.2%
CCN(CC)CCOC(=O)C(Cc1ccco1)Cc1cccc2ccccc12 (stereo not given)	2.9	13.4	u	-0.5	11.0	x	-3.9	x
O=C(Nc1cccnc1)c1ccc2nc(-c3ccccc3)c(-c3ccccc3)nc2c1	3.7	55.2	3.1	0.6	28.4	1.5	0.5	1.4%
CC(NC(=O)c1cc(-c2ccc(Br)cc2)on1)c1ccccc1 (stereo not given)	1.6	2.0	x	1.5	13.3	-3.7	-3.1	-7.0%
Cc1ccc(-n2c(SCC(=O)O)nc3sc4c(c3c2=O)CCCC4)cc1	3.3	33.7	-2.2	0.8	20.8	1.7	-4.3	-1.0%
COc1ccc(-n2nc3c(c2NC(=O)C2CCCC2)CS(=O)C3)cc1 (stereo not given)	3.8	-2.1	3.4	x	-1.8	x	x	-0.8%
CCCC1(C(=O)OCC)NC(c2ccc(N(C)C)cc2)C2C(=O)N(c3ccccc3)C(=O)C21 (stereo not given)	u	-11.5	x	-1.3	-2.9	8.2	0.6	u
COc1cccc(-n2nc3c(=O)n(Cc4ccccc4Cl)nc(C)c3c2C)c1	2.7	13.0	-4.5	0.5	8.8	0.7	-4.2	-3.3%
Cn1ncc2nnn(-c3ccccc3)c(=O)c21	x	8.0	x	-0.2	x	3.4	-2.6	-0.2%
O=C(CSc1nc2nc(-c3cccs3)cc(C(F)(F)F)c2c(=O)[nH]1)C(F)(F)F	u	8.9	-1.4	0.8	-3.0	1.6	-1.0	-1.9%
Cc1ccc(NC(=O)Cn2cncc2-c2ccc([N+](=O)[O-])cc2)cc1C	-0.3	10.4	x	0.9	4.7	-5.0	1.1	-8.9%
O=C(COC(=O)c1cccnc1Cl)NCc1ccc2c(c1)OCO2	4.9	7.7	x	1.6	-7.1	-3.0	3.6	x
